# rRNA inh HTS: selective bacterial rRNA inhibition in E. coli; E. coli WT GFP vs humanized-ribosome RFP mutants, fluorescence, 24 h; active compounds read low; DMSO median 0, no signal -100; GFP signal change (wild-type ribosome), % (concentration not given with the values); 1.6% of 350,000 active;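 active means significant combined selectivity score with lowered wild-type GFP, culture density cut under 30%, mutant RFP and density less affected; inactive means any of these conditions unmet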; further: one replicate is shown; some compounds called inactive have numbers as strong as hits
# E coli growth: blocks Escherichia coli growth; OD600, 23 h; active compounds read low; AID 1053175; OD600 absorbance (no concentration beside the values); 0.21% of 330,000 active;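 active means OD600 absorbance below the run mean of sample wells minus 3.6 SD, in any replicate, cut at about 0.56 in these data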;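 further: stock transfer was 300 nL into about 60 µL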
# ALR H2O2 inh: blocks human ALR sulfhydryl oxidase activity; P55789; purified ALR, DTT oxidation, H2O2 HRP-luminol luminescence; inhibition, % (no concentration beside the values); 3.8% of 290,000 active;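 active means mean and each replicate at 75% or more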;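 further: stock transfer was 7.5 nL into about 7.5 µL; 0% = neutral wells and 100% = wells with inactivated enzyme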
# Target sequence (P55789 whole entry, looked up): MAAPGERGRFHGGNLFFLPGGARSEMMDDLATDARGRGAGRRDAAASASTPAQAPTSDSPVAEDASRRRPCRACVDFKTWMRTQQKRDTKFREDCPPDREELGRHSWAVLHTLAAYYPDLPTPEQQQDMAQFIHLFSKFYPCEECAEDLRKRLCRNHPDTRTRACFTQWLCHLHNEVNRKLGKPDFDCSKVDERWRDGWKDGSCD
# rRNA inh HTS OD600: further read-out of rRNA inh HTS, marked with its call; OD600 change, %; measured here: OD600 growth;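 optical density of the mix in the first replicate; 0 = DMSO median and -100 = no signal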
# rRNA inh HTS RFP: also measured in rRNA inh HTS; calls as there; RFP signal change, %; measured here: RFP humanized mutant strains;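 first replicate; 0 = DMSO median and -100 = no signal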
# Active calls of the source: *; . = not tested or not shown; & = joins results of further samples. These rows are one share of the data; rates above refer to the full screens.
SMILES,rRNA inh HTS,E coli growth,ALR H2O2 inh,others
CC[C@@H]1C=CC=CC[C@H](C)[C@@H](O)[C@@H](C)C(=O)[C@H](C)[C@@H](O)[C@H](C)C(=O)[C@H](C)[C@@H](O)[C@H](C)C=CC(=O)O[C@H]2[C@@H](C)[C@@H](CC1)O[C@@]1(CC[C@@H](C)[C@@H](C[C@H](C)O)O1)[C@@H]2C,.,.,-11,
FC(F)(F)CN1C[C@@H]2C(c3ccccc3)[C@H](C1)N2CC1CC1 (stereo partly drawn),-2,.,.,rRNA inh HTS OD600=-8;rRNA inh HTS RFP=1.2
O=C(Cc1ccccc1)N1CCCCN2[C@H](CO)[C@@H](c3ccc(-c4ccccc4)cc3)[C@H]2C1,-57,.,.,rRNA inh HTS OD600=-75;rRNA inh HTS RFP=-10
CN1[C@@H]2CN(CC3CC3)C[C@H]1C2c1ccc(Br)cc1 (stereo partly drawn),-7,.,.,rRNA inh HTS OD600=-12;rRNA inh HTS RFP=1.3
COC(=O)[C@@H]1[C@@H](CO)[C@@H]2Cn3c(ccc(-c4ccccc4OC)c3=O)[C@H]1N2Cc1ccccc1,-5,.,.,rRNA inh HTS OD600=-9;rRNA inh HTS RFP=-1.1
FC(F)(F)CN1CC2C(c3ccc(Br)cc3)C(C1)N2CC1CC1 (stereo not drawn),-6,.,.,rRNA inh HTS OD600=-4;rRNA inh HTS RFP=-0.2
CC(=O)N1C2CN(C)CC1C2c1ccc(Br)cc1 (stereo not drawn),-3,.,.,rRNA inh HTS OD600=-7;rRNA inh HTS RFP=-0.7
Cc1cccc(S(=O)(=O)N2[C@@H]3Cn4c(ccc(-c5cccc(F)c5)c4=O)[C@H]2[C@@H](C(=O)O)[C@@H]3CO)c1,2,.,.,rRNA inh HTS OD600=-7;rRNA inh HTS RFP=-4.2
O=C(NN=CC1C(=O)NC(=S)N(c2ccccc2)C1=O)c1ccc(O)cc1 (stereo not drawn),.,0.7,.,
COC(=O)C1=C(c2ccc(-c3ccccc3)c(F)c2)CC2CCC1N2C(=O)NCC1CC1 (stereo not drawn),.,0.68,.,
CC(C)c1ccc(N2C(=O)NC(=O)C(=CC=Cc3ccco3)C2=O)cc1,.,0.74,.,
CCCNC(=O)N1C2CCC1C(C(=O)OC)=C(c1ccc(-c3ccccc3)c(F)c1)C2 (stereo not drawn),.,0.64,.,
CC(=O)O[C@@H]1C=C[C@](C)(O)C[C@@H](C)CC=C[C@H]2[C@H](O)[C@@](C)(O)[C@@H](C)[C@H]3[C@H](Cc4ccccc4)NC(=O)[C@@]312,.,0.71,.,
CCOC(=O)c1c(N=CC2C(=O)NC(=O)NC2=O)sc2c1CCC2,.,0.63,.,
COC(=O)C1=C(c2ccc(C(C)=O)cc2)CC2CCC1N2C(=O)N1CCCC1 (stereo not drawn),.,0.71,.,
CC1(O)C[C@]2(C)N(O)C3CCCCC3N2O1 (stereo partly drawn),.,0.69,.,
COC(=O)C1=C(c2ccc(-c3ccccc3)c(F)c2)CC2CCC1N2C(=O)N1CCC(O)CC1 (stereo not drawn),.,0.69,.,
C[C@]12CCC(=O)C(O)=C1CCC1C2CC[C@]2(C)C(=O)CCC12 (stereo partly drawn),.,0.66,.,
CC1CCCC(O)CCCCCc2cc(O)cc(O)c2C(=O)O1 (stereo not drawn),.,0.71&0.7,.,
COC(=O)C1=C(c2cccc(OCc3ccccc3)c2)CC2CCC1N2C(=O)NCCOc1ccccc1 (stereo not drawn),.,0.71,.,
CC1=NN(c2ccccc2)C(=O)C1C=C1C(=O)NC(=O)N(c2cc(C)cc(C)c2)C1=O (stereo not drawn),.,0.67,.,
COC(=O)C1=C(c2cccc(OC)c2OC)CC2CCC1N2C (stereo not drawn),.,0.69,.,
COC(=O)C1=C(c2ccc(F)cc2F)CC2CCC1N2C(=O)NCc1ccc2c(c1)OCO2 (stereo not drawn),.,0.68,.,
COC(=O)C1=C(c2cccc(Cl)c2)CC2CCC1N2C(=O)NCC1CC1 (stereo not drawn),.,0.72,.,
CC(=O)C1C2c3ccccc3OC1(C)N=c1sc(=Cc3cnn(C)c3)c(=O)n12 (stereo not drawn),.,0.69,.,
# The list goes on:
SMILES,rRNA inh HTS,E coli growth,ALR H2O2 inh,others
COC(=O)C1=C(c2ccc(F)cc2OCc2ccccc2)CC2CCC1N2C(=O)N1CCCC1 (stereo not drawn),.,0.7,.,
COC(=O)C1=C(c2ccccc2OCc2ccccc2)CC2CCC1N2C(=O)NCc1ccc(Br)cc1 (stereo not drawn),.,0.78,.,
CCCNC(=O)N1C2CCC1C(C(=O)OC)=C(c1cccc(C#N)c1)C2 (stereo not drawn),.,0.7,.,
COC(=O)C1=C(c2ccc(F)cc2F)CC2CCC1N2C(=O)NCc1ccc(C(F)(F)F)cc1 (stereo not drawn),.,0.69,.,
COC(=O)C1=C(c2ccc(S(C)(=O)=O)cc2)CC2CCC1N2C(=O)NCc1ccccc1 (stereo not drawn),.,0.68,.,
CCCNC(=O)N1C2CCC1C(C(=O)OC)=C(c1cccc(Cl)c1)C2 (stereo not drawn),.,0.69,.,
O=P(C(=NO)N1CCOCC1)(N1CCOCC1)N1CCOCC1,.,0.8,.,
NC(=N[N+](=O)[O-])N1CCN(C(=O)OC2CCCC2)CC1,.,0.67,.,
Cc1ccc(C(=O)NC(C)CN2C3=NCC(Cc4ccccc4)N3CC2Cc2ccc(O)cc2)cc1Br (stereo not drawn),.,0.68&0.68,.,
C#C[C@]1(O)CCC2C3CCC4=CC(=NOCC(=O)NC(C)C(=O)NC(CCSC)C(=O)O)CC[C@]4(C)C3CC[C@@]21C (stereo partly drawn),.,0.63,.,
COC(=O)C1=C(c2ccc(C(C)=O)cc2)CC2CCC1N2C (stereo not drawn),.,0.68,.,
COC(=O)C1=C(c2ccccc2OCc2ccccc2)CC2CCC1N2C(=O)NCCCOC(C)C (stereo not drawn),.,0.64,.,
CN(C)c1ccc(C=C2C(=O)NC(=O)N(CCc3ccc(F)cc3)C2=O)cc1,.,0.72,.,
CC(=NNP(=S)(c1ccccc1)c1ccccc1)c1ccc(O)cc1O,.,0.72,.,
COC(=O)C1=C(c2ccc3ccccc3c2)CC2CCC1N2C(=O)N1CCCCC1 (stereo not drawn),.,0.68,.,
CC12CC[C@H]3[C@@H](CCC4(O)C[C@H](O)CCC34C=NNC(=O)c3ccccc3O)C1(O)CCC2C1=CC(=O)OC1 (stereo partly drawn),.,0.7,.,
CC(C)(C)[C@]1(O)CC2OC(=O)C[C@@]23C(=O)OC2OC(=O)C(O)[C@]213 (stereo partly drawn),.,0.68,.,
NC(=N[N+](=O)[O-])N1CCN(C(=O)c2ccccn2)CC1,.,0.69,.,
COC(=O)C1=C(c2ccc(S(C)(=O)=O)cc2)CC2CCC1N2C(=O)NCc1ccc(C(F)(F)F)cc1 (stereo not drawn),.,0.7,.,
COC(=O)C1=C(c2ccc(OC)c(OC)c2)CC2CCC1N2C(=O)N1CCC(O)CC1 (stereo not drawn),.,0.7,.,
FC(F)(F)C(=NP(=S)(N1CCOCC1)N1CCOCC1)N1CCOCC1,.,0.77,.,
CCOC(=O)C1CCN(C=C2C(=O)NC(=S)N(c3cccc(OC)c3)C2=O)CC1,.,0.7,.,
CC1CN(C2CCC(C#N)(c3ccc(F)cc3)CC2)CC[C@]1(C(=O)O)c1ccccc1 (stereo partly drawn),.,0.69,.,
NC(=N[N+](=O)[O-])N1CCN(C(=O)Oc2ccccc2)CC1,.,0.64,.,
CCCNC(=O)N1C2CCC1C(C(=O)OC)=C(c1ccc(F)cc1F)C2 (stereo not drawn),.,0.68,.,
# Continuation.
SMILES,rRNA inh HTS,E coli growth,ALR H2O2 inh,others
COC(=O)C1=C(c2cccc3c2S(=O)(=O)c2ccccc2-3)CC2CCC1N2C(=O)N1CCOCC1 (stereo not drawn),.,0.7,.,
COC(=O)C1=C(c2ccc(F)cc2OCc2ccccc2)CC2CCC1N2C(=O)NCc1cccc(OC)c1 (stereo not drawn),.,0.67,.,
COC(=O)C1=C(c2ccc(-c3ccccc3)c(F)c2)CC2CCC1N2C(=O)NCCc1ccccc1 (stereo not drawn),.,0.74,.,
COC(=O)[C@]1(C)CC1C(NP(=O)(c1ccccc1)c1ccccc1)c1ccccc1 (stereo partly drawn),.,0.7,.,
COC(=O)C1=C(c2ccc(OCc3ccccc3)cc2)CC2CCC1N2C(=O)NCc1cccc(C(F)(F)F)c1 (stereo not drawn),.,0.71,.,
COP(=O)(OC)C(NC(=O)C=Cc1ccccc1)C(Cl)(Cl)Cl (stereo not drawn),.,0.7,.,
CN1C2CCC1CC(OC1c3ccccc3CCc3ccccc31)C2 (stereo not drawn),.,0.62,.,
COC(=O)C1=C(c2ccc(OC)c(OC)c2)CC2CCC1N2C(=O)NCc1cccc2ccccc12 (stereo not drawn),.,0.68,.,
Oc1cccc(C=NNP(=S)(c2ccccc2)c2ccccc2)c1,.,0.64,.,
Oc1ccc(C=NNP(=S)(c2ccccc2)c2ccccc2)cc1O,.,0.69,.,
COC(=O)C1=C(c2ccc(S(C)(=O)=O)cc2)CC2CCC1N2C(=O)NCCNC(C)=O (stereo not drawn),.,0.69,.,
CC1C(=O)OC2C(O)C34C5OC(=O)C3(OC3OC(=O)C(O)C34C(C(C)(C)C)C5O)[C@@]12O (stereo partly drawn),.,0.68,.,
COC(=O)C1=C(c2ccc(Cl)c(C(F)(F)F)c2)CC2CCC1N2C(=O)NCc1cc(C)oc1C(F)(F)F (stereo not drawn),.,0.7,.,
COC(=O)C1=C(c2ccc(C(C)=O)cc2)CC2CCC1N2C(=O)NCc1ccco1 (stereo not drawn),.,0.6,.,
COC(=O)C1=C(c2ccc(F)cc2OCc2ccccc2)CC2CCC1N2C(=O)NCc1ccc2c(c1)OCO2 (stereo not drawn),.,0.72,.,
COC(=O)C1=C(c2cc3ccccc3o2)CC2CCC1N2C(=O)NCc1ccc(F)cc1 (stereo not drawn),.,0.64,.,
COC(=O)C1=C(c2ccc(OC(F)(F)F)cc2)CC2CCC1N2C(=O)NCC1CC1 (stereo not drawn),.,0.68,.,
COC(=O)C1=C(c2ccc(F)cc2OCc2ccccc2)CC2CCC1N2C(=O)NC1Cc2ccccc2C1 (stereo not drawn),.,0.74,.,
COC(=O)C1=C(c2ccc(OCc3ccccc3)cc2)CC2CCC1N2C(=O)NCc1cccc(OC)c1 (stereo not drawn),.,0.73,.,

# Ordered by molecular weight (smallest number first): three of the compounds above.
SMILES,rRNA inh HTS,E coli growth,ALR H2O2 inh,others
CC1C(=O)OC2C(O)C34C5OC(=O)C3(OC3OC(=O)C(O)C34C(C(C)(C)C)C5O)[C@@]12O (stereo partly drawn),.,0.68,.,
COC(=O)C1=C(c2ccc(OCc3ccccc3)cc2)CC2CCC1N2C(=O)NCc1cccc(OC)c1 (stereo not drawn),.,0.73,.,
COC(=O)C1=C(c2ccc(F)cc2OCc2ccccc2)CC2CCC1N2C(=O)NCc1cccc(OC)c1 (stereo not drawn),.,0.67,.,

# Molecules from the list above that have sulfur, in the order listed:
SMILES,rRNA inh HTS,E coli growth,ALR H2O2 inh,others
Cc1cccc(S(=O)(=O)N2[C@@H]3Cn4c(ccc(-c5cccc(F)c5)c4=O)[C@H]2[C@@H](C(=O)O)[C@@H]3CO)c1,2,.,.,rRNA inh HTS OD600=-7;rRNA inh HTS RFP=-4.2
O=C(NN=CC1C(=O)NC(=S)N(c2ccccc2)C1=O)c1ccc(O)cc1 (stereo not drawn),.,0.7,.,
CCOC(=O)c1c(N=CC2C(=O)NC(=O)NC2=O)sc2c1CCC2,.,0.63,.,
CC(=O)C1C2c3ccccc3OC1(C)N=c1sc(=Cc3cnn(C)c3)c(=O)n12 (stereo not drawn),.,0.69,.,
COC(=O)C1=C(c2ccc(S(C)(=O)=O)cc2)CC2CCC1N2C(=O)NCc1ccccc1 (stereo not drawn),.,0.68,.,
C#C[C@]1(O)CCC2C3CCC4=CC(=NOCC(=O)NC(C)C(=O)NC(CCSC)C(=O)O)CC[C@]4(C)C3CC[C@@]21C (stereo partly drawn),.,0.63,.,
CC(=NNP(=S)(c1ccccc1)c1ccccc1)c1ccc(O)cc1O,.,0.72,.,
COC(=O)C1=C(c2ccc(S(C)(=O)=O)cc2)CC2CCC1N2C(=O)NCc1ccc(C(F)(F)F)cc1 (stereo not drawn),.,0.7,.,
FC(F)(F)C(=NP(=S)(N1CCOCC1)N1CCOCC1)N1CCOCC1,.,0.77,.,
CCOC(=O)C1CCN(C=C2C(=O)NC(=S)N(c3cccc(OC)c3)C2=O)CC1,.,0.7,.,
COC(=O)C1=C(c2cccc3c2S(=O)(=O)c2ccccc2-3)CC2CCC1N2C(=O)N1CCOCC1 (stereo not drawn),.,0.7,.,
Oc1cccc(C=NNP(=S)(c2ccccc2)c2ccccc2)c1,.,0.64,.,
Oc1ccc(C=NNP(=S)(c2ccccc2)c2ccccc2)cc1O,.,0.69,.,
COC(=O)C1=C(c2ccc(S(C)(=O)=O)cc2)CC2CCC1N2C(=O)NCCNC(C)=O (stereo not drawn),.,0.69,.,

# Screening data: PubChem, several laboratories
